LANA-H2A inh: blockers of LANA interaction with H2A/H2B – biochemical, FP readout, HTS, primary screen; cell-free LANA-H2A/H2B peptide, fluorescence polarization; 0.6% of 320,000 active; inhibition, % (concentration not given with the values); Protein LANA1 (Human herpesvirus 8 type P (isolate GK18)), Q9QR71; in the data active means inhibition mostly above about 10%, no sharp cut-off; inactive means mostly below about 6.7%;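 further: stock transfer was 7.5 nL into about 10 µL; 0% = median of vehicle wells and 100% = median of positive control wells; one replicate is shown; the record names a cut of 25% in any replicate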
UCH37 inh: inhibitors of human UCH37 deubiquitinase, primary screen, biochemical, Ub-AMC cleavage, fluorescence; Ubiquitin carboxyl-terminal hydrolase isozyme L5 (Homo sapiens), Q9Y5K5; purified proteasome/UCH37; inhibition, % (test concentration not listed); 0.33% of 330,000 active; AID 588478, 2011;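 active means mean of two replicates above 20%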;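 further: 0% = compound-free wells with enzyme and 100% = wells lacking proteasome; stock transfer was 100 nL into about 20 µL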
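Signal – fluorescence, ex 355 nm, em 460 nm · System – Proteasome-bound UCH37 · Input – 0.15 nM proteasome as dispensed · Timing – 30 min preincubation with enzyme, 25 min cleavage at room temperature · Read-out basis – percent inhibition of cleavage signal versus uninhibited and no-proteasome wells · Medium – Tris-HCl pH 7.4 with ATP-MgCl2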
B2AR ag: beta2AR agonists driving receptor internalization, primary screen, cell-based, FAP fluorogen, flow cytometry. 0.43% of 340,000 active. Am2.2-beta2AR cells; reference of the scale not given here. response, % (no concentration beside the values). Beta-2 adrenergic receptor (Homo sapiens), P07550;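 active means response above a set limit, near 3 SD of response in nonfluorescent compounds, cut at about 42% in these data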;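 further: stock transfer was 100 nL into about 11 µL; a reference agonist was the positive control; negative values mostly stem from fluorescent compounds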
Target sequence (P07550 whole entry, looked up): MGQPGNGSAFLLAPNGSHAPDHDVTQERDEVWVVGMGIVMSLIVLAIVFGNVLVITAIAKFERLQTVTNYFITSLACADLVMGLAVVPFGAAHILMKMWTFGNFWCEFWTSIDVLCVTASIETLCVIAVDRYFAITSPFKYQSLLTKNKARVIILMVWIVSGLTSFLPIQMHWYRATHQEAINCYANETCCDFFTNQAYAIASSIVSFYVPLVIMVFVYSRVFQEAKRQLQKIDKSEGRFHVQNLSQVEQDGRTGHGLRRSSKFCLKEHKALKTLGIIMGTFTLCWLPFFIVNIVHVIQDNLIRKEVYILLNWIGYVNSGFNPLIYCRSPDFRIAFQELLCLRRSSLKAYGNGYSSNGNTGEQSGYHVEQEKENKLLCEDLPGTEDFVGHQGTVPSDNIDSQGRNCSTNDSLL
FGF22 binding: binders of human FGF22 protein, primary screen, FGF22 synaptogenesis inhibitor project, biophysical, thermal shift, single point; Fibroblast growth factor 22 (Homo sapiens), Q9HCT0; recombinant FGF22 thermal shift, SYPRO orange fluorescence; percent of sucrose octasulfate shift, DMSO zero; calls only at 9.99 µM; 1.5% of 340,000 active; AID 651658, 2012;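 active means melting point raised past a set limit in the mean and every replicate; three in four hits are not shown here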
Target sequence (Q9HCT0 whole entry, looked up): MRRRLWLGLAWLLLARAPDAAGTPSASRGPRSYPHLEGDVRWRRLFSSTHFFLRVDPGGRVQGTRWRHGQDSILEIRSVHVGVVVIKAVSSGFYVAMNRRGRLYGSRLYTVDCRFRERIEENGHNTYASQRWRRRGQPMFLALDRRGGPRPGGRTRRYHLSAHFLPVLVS
Ecoli growth: E. coli growth inhibition, primary screen, OD600; Escherichia coli growth, 23 h; active compounds read low; AID 1053175, 2014; 0.21% of 330,000 active; OD600 absorbance (concentration not given with the values);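 active means OD600 absorbance below the run mean of sample wells minus 3.6 SD, in any replicate, cut at about 0.56 in these data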;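 further: stock transfer was 300 nL into about 60 µL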
HNF4A DNA FP: change in binding of human HNF4A to DNA, primary screen, biochemical, fluorescence polarization, FITC-DNA | 0.3% of 360,000 active | Hepatocyte nuclear factor 4-alpha (Homo sapiens), P41235 | 1 h | activity change, % at 10 µM; in the data active means activity change above about 30%, passing the limit was not always enough;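 further: controls were the assay level and a saturating level of protein; the project sought stronger binding though the title names inhibitors; some compounds called inactive have numbers as strong as hits; positive values seem to mean higher polarization but the record does not say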
Target sequence (P41235 whole entry, looked up): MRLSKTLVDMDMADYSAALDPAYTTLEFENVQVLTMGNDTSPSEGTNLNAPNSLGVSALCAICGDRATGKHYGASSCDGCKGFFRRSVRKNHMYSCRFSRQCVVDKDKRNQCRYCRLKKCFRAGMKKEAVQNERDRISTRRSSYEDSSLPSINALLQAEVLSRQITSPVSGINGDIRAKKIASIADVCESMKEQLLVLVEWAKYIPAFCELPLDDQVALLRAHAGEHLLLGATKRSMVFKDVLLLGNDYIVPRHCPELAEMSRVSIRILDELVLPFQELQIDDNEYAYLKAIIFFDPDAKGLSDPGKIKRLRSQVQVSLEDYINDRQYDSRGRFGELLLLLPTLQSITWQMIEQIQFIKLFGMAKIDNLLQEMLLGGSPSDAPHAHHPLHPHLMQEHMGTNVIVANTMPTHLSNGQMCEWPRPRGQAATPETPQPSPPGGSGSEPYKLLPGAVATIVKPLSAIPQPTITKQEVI
ALR inh: inhibitors of human ALR sulfhydryl oxidase, primary screen, biochemical, H2O2 detection, HRP-luminol luminescence, single point; FAD-linked sulfhydryl oxidase ALR (Homo sapiens), P55789; purified ALR, DTT oxidation; inhibition, % (test concentration not listed); 3.8% of 290,000 active;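 active means mean and each replicate at 75% or more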;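 further: stock transfer was 7.5 nL into about 7.5 µL; 0% = neutral wells and 100% = wells with inactivated enzyme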
Active calls of the source: *; i = inactive; x = not tested or not shown.

Preview (six entries):
SMILES	LANA-H2A inh	UCH37 inh	B2AR ag	FGF22 binding	Ecoli growth	HNF4A DNA FP	ALR inh
CC(C)(C)c1ccc(NC(=O)CON=C(N)c2ccccc2)cc1	x	-0.3	-3	i	0.6	0.5	x
Cn1c(SCC(=O)NNC(=O)Nc2ccccc2)nnc1-c1ccccc1	-0.8	4.7	-5	i	0.68	-0.1	5
CC(=O)Nc1ccc(S(=O)(=O)NCCC(=O)Nc2cc(C)ccn2)cc1	3.7	1.5	5	i	0.67	0.5	-10
O=C(c1cccc([N+](=O)[O-])c1)N1CCN(c2ccc(N3CCOCC3)nn2)CC1	2.1	0.2	0	i	0.64	-1.6	-5
CCOc1ccc(C(=O)NC2CCN(S(=O)(=O)CC)CC2)cc1	4.1	2.9	-3	x	0.66	-1.1	2
O=C(CSc1nc2c(c(=O)n1-c1ccccc1)SCC2)N1CCOCC1	-6.9	11	6	i	0.81	-4.4	-1

The whole of this part, from the start:
SMILES	LANA-H2A inh	UCH37 inh	B2AR ag	FGF22 binding	Ecoli growth	HNF4A DNA FP	ALR inh
CC(C)(C)c1ccc(NC(=O)CON=C(N)c2ccccc2)cc1	x	-0.3	-3	i	0.6	0.5	x
Cn1c(SCC(=O)NNC(=O)Nc2ccccc2)nnc1-c1ccccc1	-0.8	4.7	-5	i	0.68	-0.1	5
CC(=O)Nc1ccc(S(=O)(=O)NCCC(=O)Nc2cc(C)ccn2)cc1	3.7	1.5	5	i	0.67	0.5	-10
O=C(c1cccc([N+](=O)[O-])c1)N1CCN(c2ccc(N3CCOCC3)nn2)CC1	2.1	0.2	0	i	0.64	-1.6	-5
CCOc1ccc(C(=O)NC2CCN(S(=O)(=O)CC)CC2)cc1	4.1	2.9	-3	x	0.66	-1.1	2
O=C(CSc1nc2c(c(=O)n1-c1ccccc1)SCC2)N1CCOCC1	-6.9	11	6	i	0.81	-4.4	-1
Cc1onc(-c2c(F)cccc2Cl)c1C(=O)N=C(N)N1CCCC1	0.0	3.7	0	i	0.66	-2.5	-11
Cc1ccc(CNC(=O)C2CC(c3ccccc3[N+](=O)[O-])=NO2)cc1 (centres undefined)	-2.0	6.6	-2	i	0.61	0.8	1
CN(C)S(=O)(=O)c1cccc(NC(=O)COc2ccccc2C(=O)NCc2ccccc2)c1	x	x	-9	i	x	-2.1	x
O=C1CC(N2CCCCC2)C(=O)N1c1ccccc1 (centres undefined)	0.8	4.3	2	x	0.74	0.5	8
CCn1c(CCNC(=O)c2cccs2)nnc1SCC(=O)Nc1nc(-c2ccccc2)cs1	-1.7	1.4	-7	x	0.68	2.3	-26
CCN(CC)Cc1c(C(=O)N2CCc3ccccc3C2)nc2ccc(Cl)cn12	0.0	-2.2	-10	i	0.65	0.8	0
COc1cccc(NC(=O)CN(C)C(=O)CCCc2c[nH]c3ccccc23)c1	0.9	0.3	3	i	0.7	0.8	x
COc1ccc(Nc2nc(NCc3ccco3)nc(N/N=C/c3ccccc3Cl)n2)cc1	-0.8	x	6	x	x	1.0	-20
Cc1ccc(N2CC(C(=O)N3CCC(c4nc5ccccc5[nH]4)CC3)CC2=O)cc1C (centres undefined)	-0.7	1.0	9	i	0.67	1.8	-4
CCOC(=O)C1CCCN(C(=O)CSc2ccc(NC(C)=O)cc2)C1 (centres undefined)	-7.9	-0.4	9	i	0.72	-0.4	x
O=C(CCCc1cccs1)Nc1ccc2c(c1)OCO2	-20	-0.7	-8	i	0.64	-0.3	x
COc1ccc(CCN2CC3=C(C2=O)C(c2ccccc2)NC(=O)N3C)cc1OC (centres undefined)	3.1	1.4	-7	x	0.68	-0.8	x
Cc1cc(C(N)=O)c2ccccc2n1	-0.7	0.9	3	x	0.69	2.3	5
COc1cccc(CN2CC(C(=O)NCCOc3cccnc3)CCC2=O)c1 (centres undefined)	x	0.7	3	i	0.65	0.8	12
O=C(NC(=S)NCCc1ccccn1)c1ccco1	-4.4	-0.1	-5	i	0.65	1.8	12
COc1cc2c3c(c1)C(C)CC(C)(C)N3C(=O)C2=O (centres undefined)	3.7	x	4	x	x	2.6	-75
O=C1c2ccccc2C(=O)N1Cc1ccco1	-6.6	-1.1	0	x	0.76	0.9	6
COc1ccc(S(=O)(=O)NCCC(=O)OCC(=O)NC2CC2)cc1	4.5	2.8	-4	i	0.72	11	-3
COc1ccc(NC(=O)c2cccc(F)c2)cc1Cl	-4.1	-2.4	8	x	0.72	0.7	-4
O=C(c1cccnc1)N1N=C(C2CCCCC2)CC1(O)C(F)(F)F (centres undefined)	3.1	4.4	-6	x	0.73	-1.5	-4
Cc1ccc(Cl)cc1N1CCN(C(=O)CSc2ccsc2[N+](=O)[O-])CC1	x	3.3	4	i	0.7	-10.0	x
CCOC(=O)c1cnc2cc(F)c(F)cc2c1N1CCOCC1	0.1	3.1	2	i	0.65	-1.6	7
CCC(=O)Nc1cccc(C2=NOC3(C2)C[C@@H](C(N)=O)N(C(=O)C2(C)CC2)C3)c1 (some centres undefined)	-3.4	-0.7	3	i	x	2.6	-1
O=C(CSc1cn(CCNC(=O)c2cccs2)c2ccccc12)NCc1ccccc1	3.8	4.7	-5	i	0.69	1.9	27
CCC(NC(=O)Nc1nnc(C(F)(F)F)s1)(C(F)(F)F)C(F)(F)F	1.2	-3.7	29	x	0.61	2.8	-8
Cc1ccc(-c2nn(-c3ccccc3)cc2C(=O)NN2CCN(C)CC2)cc1	-1.1	-1.3	-27	i	0.66	-1.8	14
C=CCSc1nnc2c(n1)OC(c1c(C)[nH]n(-c3ccccc3)c1=O)Nc1ccccc1-2 (centres undefined)	-3.4	3.8	8	x	0.71	0.7	7
Cc1ccccc1NC(=O)/C(C#N)=C\c1ccsc1	-5.7	5.5	-10	i	0.73	1.2	-3
CC(C)C(NC(=O)c1ccc(C(C)(C)C)cc1)C(=O)N1CCC(C(N)=O)CC1 (centres undefined)	-2.8	-1.8	-3	i	0.65	5.6	-13
O=C(COC(=O)c1ccc2ncsc2c1)NCc1ccc(Cl)cc1	3.5	2.4	-8	i	0.63	1.5	10
O=C1CS/C(=C\[N+](=O)[O-])N1c1ccc(OC(F)(F)F)cc1	9.2	9.6	-4	x	0.67	2.1	8
CC(C)[C@H](NC(=O)c1ccco1)C(=O)NCc1ccccc1	-1.6	0.6	-3	x	0.69	-3.2	x
Cc1ccc(C(=O)CC(=O)c2cccc(F)c2)c(O)c1	-11	2.1	5	x	0.68	-4.5	x
CN(C)CCNC(=O)c1cccc(S(=O)(=O)Nc2ccccc2F)c1	-1.6	2.2	-1	i	0.64	-0.1	-8
CC1(C)CN(O)CCN1O	-3.0	-1.0	8	i	0.72	0.7	7
CN(C)CC1CCCCC1OC(=O)c1ccc(Cl)cc1Cl (centres undefined)	3.4	6.2	-2	i	0.71	4.2	-22
Cc1cccc2sc(NC(=O)CN3C(=O)c4ccccc4C3=O)nc12	-4.1	4.1	6	i	0.69	-1.1	0
COc1ccc(N2CCN(C(=O)Cn3nnc(-c4ccccc4N)n3)CC2)cc1	-1.7	4.4	4	i	0.68	0.5	x
CCN(CC)S(=O)(=O)c1ccc(NC(=O)c2ccc(Sc3nncn3C)c([N+](=O)[O-])c2)cc1	2.5	5.6	3	i	0.65	0.6	-11
CC(C)c1ccc2c(c1)C(N1CCNCC1)Cc1ccc(F)cc1S2 (centres undefined)	-1.5	7.1	32	i	0.13*	x	-10
Cc1c(NC(=S)NC(=O)CCc2ccccc2)c(=O)n(-c2ccccc2)n1C	2.5	0.8	6	i	0.68	3.4	1
CC(NC(=O)c1ccccc1NC(=O)c1ccncc1)c1ccccc1 (centres undefined)	0.4	-2.6	9	i	0.71	2.1	-1
CCn1c(SCC(=O)N2CCCCC2)nc(O)cc1=O	0.2	6.6	0	x	0.72	3.1	23
Cc1ccccc1C(=O)Nc1ccnn1C1CCN(Cc2cnn(C(C)C)c2)CC1	17*	2.5	6	i	0.7	-2.1	-3
Going on with the list:
SMILES	LANA-H2A inh	UCH37 inh	B2AR ag	FGF22 binding	Ecoli growth	HNF4A DNA FP	ALR inh
Cc1ccc(Sc2ccc(CN3CCCC3)cc2[N+](=O)[O-])cc1	0.2	-0.2	-5	i	0.68	6.1	8
CCCCC(NC(=O)Cc1c(C)c2cc3c4c(oc3cc2oc1=O)CCCC4)C(=O)O (centres undefined)	-3.8	-92	0	i	0.62	-7.3	7
COc1ccc(CN2C(=O)c3ccccc3C2OC)cc1 (centres undefined)	1.0	3.3	1	i	0.7	-0.6	7
Cc1cc(NS(=O)(=O)c2ccc(NC(=O)/C=C/c3c(F)cccc3Cl)cc2)no1	2.6	2.4	10	i	0.71	1.3	64
CCN(CC)S(=O)(=O)c1ccc(N2CCN(C)CC2)c(NC(=O)Nc2ccc(C)cc2)c1	-3.2	1.8	13	i	0.68	-1.2	-10
Cc1ccc(Cl)cc1N1CCN(C(=O)c2cn(C)c(=O)c3c2c2ccccc2n3C)CC1	-1.5	-27	15	i	0.71	4.1	x
Cc1cc(C)c2nc(-c3ccccn3)cc(C(=O)Nc3ccc(S(=O)(=O)Nc4cc(C)on4)cc3)c2c1	4.1	-47	6	x	0.71	-3.0	5
CCc1ccc(NC(=O)COC(=O)CCCC2=NS(=O)(=O)c3ccccc3N2)cc1	1.3	1.8	-5	i	0.66	-1.4	-2
O=C(Cc1csc(NC(=O)c2ccc(F)cc2)n1)NO	-6.1	1.6	3	i	0.63	0.0	18
c1ccc(N2CCN(c3ccccc3)C2c2ccncc2)cc1	-4.0	-1.3	-2	i	0.69	-3.6	86*
COC(=O)c1c(C(=O)OC)c(-c2cccc(F)c2)n2c1CS(=O)C2 (centres undefined)	-0.1	1.5	10	i	0.67	-5.5	-5
O=C(CS(=O)(=O)c1cn(Cc2ccc(Cl)cc2)c2ccccc12)N1CCOCC1	0.4	1.5	-6	i	0.7	0.7	-14
Cc1ccc(CC2C(=O)N(CC(=O)O)C(=O)C2C)cc1 (centres undefined)	1.4	2.4	-1	x	0.7	-3.2	4
CC(C(=O)Nc1ccccn1)c1ccccc1 (centres undefined)	-0.9	2.8	-80	i	0.61	-1.8	-8
Nc1cc(Cl)nnc1Cl	x	2.6	-3	i	0.62	2.8	x
Cc1ccc(C(=O)N2CCN(c3cnn(C)c(=O)c3Cl)CC2)cc1	2.5	3.9	-12	i	0.65	-2.8	-27
CC1CC1C(=O)OCC(=O)c1c(N)n(C)c(=O)n(C)c1=O (centres undefined)	-5.4	-0.1	-3	i	0.66	-0.9	-15
NC(=O)c1ccc(SCC(=O)OCC(=O)N2CCCC2=O)c([N+](=O)[O-])c1	0.7	2.0	3	i	0.65	-2.4	-8
CS(=O)(=O)N1CCc2cc(C(=O)N3CCN(c4ccccc4)CC3)ccc21	1.0	4.0	4	i	0.71	3.3	30
Cc1ccc(CNC(=O)c2cn(C3CCCCC3)c(=O)c3c2c2ccccc2n3C)o1	-1.3	-28	13	x	0.68	-1.1	-4
S=c1nc[nH]c2c1ncn2C1CCCO1 (centres undefined)	1.5	x	-5	i	x	1.3	14
COc1cccc(NC(=O)CCCCCn2nnc3ccccc3c2=O)c1	7.5	1.9	-2	i	0.64	-3.6	17
CC(C)Cc1csc(=S)[nH]1	x	3.4	-4	i	0.69	-0.1	x
COc1ccc(S(=O)(=O)N[C@@H](CSCc2ccccc2)C(=O)O)cc1	4.5	-1.1	-1	i	0.68	-0.6	-6
O=c1nc(Nc2ccccc2)oc2ccccc12	10	5.7	-7	i	0.67	-0.5	8
Cc1cc(C(=O)C(C)OC(=O)C2=NNC(=O)CC2)c(C)n1-c1ccc(OC(F)F)cc1 (centres undefined)	-0.8	1.8	2	x	0.69	-0.5	2

Compound activity as filed in PubChem.

An excerpt, so the mix of outcomes need not match the whole.
